PD-1 reverse act: reversal of PD-1 mediated T-cell inhibition | AID 2316 | primary human CD4 T cells, PD-L1 beads, CellTiter-Glo 96 h | activation, % (no concentration beside the values) | 29,000 tested, under 10 active;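 active = replicate mean of 50% or more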;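 note: 0% = median vehicle wells and 100% = positive control; 100 nL library stock added to about 50 µL; numbers are from one replicate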
MITF inh: MITF inhibition. TRPM1 promoter luciferase, luminescence, 24 h. inhibition, % (test concentration not listed). 37,000 compounds, 0.28% hits. AID 2240;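 active = most replicates at 85% or more, or half of them and the mean; inconclusive = half reach 85% but not the mean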;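 note: human melanocyte line stably carrying TRPM1 promoter luciferase reporter; 0% = vehicle wells and 100% = a positive control; the first replicate is given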
YB-1 expr inh: YB-1 expression inhibition; AID 434959; U2OS, qRT-PCR YB-1 vs CDIP delta delta Cp, 16 h; hits give high values; zero = DMSO, each unit about twofold; 30,000 compounds, 0.37% hits; delta delta Cp (YB-1 minus CDIP) (concentration not given with the values);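 active = delta delta Cp rounded down to an integer at or above 3, about 3 SD of DMSO wells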;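 note: higher means less YB-1 transcript or more CDIP transcript relative to DMSO; stock transfer was 100 nL into about 100 µL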
Shh pathway inh: blocks Sonic Hedgehog signaling; AID 2313; 22,000 compounds, 2.1% hits; inhibition, % (concentration not given with the values); Shh-LIGHT2 Gli-luciferase reporter, 30 h;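 active = replicate mean of 65% or more; inconclusive = mean lower but half the replicates past it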;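 note: pathway switched on by Shh-conditioned medium diluted 1 in 25 in low serum; 100 nL library stock added to about 40 µL; 0% = median of neutral wells and 100% = positive control level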
* = called active by the depositor; ? = inconclusive; / = not tested or not shown. The list is partial; the hit share may differ from the screen's.

SMILES | PD-1 reverse act | MITF inh | YB-1 expr inh | Shh pathway inh
C[C@@H]1CN([C@H](C)CO)C(=O)c2cc(N(C)C)ccc2O[C@H]1CN(C)C(=O)Nc1ccc(F)cc1 | / | -8.3 | 0.151 | -10.5
C=CCN1C(C(=O)c2ccccc2)=C(OC(=O)c2ccccc2)c2ccccc2S1(=O)=O | -5.9 | 16.7 | -0.424 | 10.8
Cc1ccc(S(C)(=O)=NC(=O)NC(=O)c2c(Cl)cccc2Cl)cc1 (stereo not drawn) | 2.2 | 13.3 | 0.233 | ?
C=C1C(=O)O[C@H]2[C@H]1[C@@H](OC(=O)/C(C)=C\C)C[C@]1(C)O[C@@H]1[C@H]1O[C@H]1C(=C)[C@H]2O | -24.8 | 35.3 | -0.56 | 30.6
C[C@H](CO)N1C[C@H](C)[C@@H](CN(C)Cc2ccc(Oc3ccccc3)cc2)Oc2c(NC(=O)Nc3ccccc3)cccc2C1=O | -7.9 | 26.8 | 0.0895 | 39.7
CCCCOC(=O)c1cc2c(cn1)[nH]c1ccccc12 | / | -46.0 | -0.0865 | -118.9
C[C@H]1CN([C@@H](C)CO)C(=O)c2cccc(NS(=O)(=O)c3ccc(Cl)cc3)c2O[C@H]1CN(C)C(=O)Nc1ccc2c(c1)OCO2 | -0.6 | 10.9 | -0.226 | 13.8
CNC[C@@H]1OCCCC[C@@H](C)Oc2ccc(NS(=O)(=O)c3c(C)noc3C)cc2C(=O)N([C@H](C)CO)C[C@@H]1C | 0.2 | 0.2 | -0.249 | /
Cc1cccc(NC(=O)CN(C)S(=O)(=O)c2ccc3ccccc3c2)c1C | -0.6 | 2.4 | / | /
CC1(C)Cc2c(c(N3CCOCC3)nc3sc4c(NCCN5CCOCC5)ncnc4c23)CS1 | -2.9 | -23.1 | / | /
O=S(=O)(NCc1ccco1)c1ccc(Oc2ccccc2)cc1 | -1.4 | 37.3 | / | /
Cc1noc(C)c1S(=O)(=O)Nc1ccc2c(c1)CC(=O)N([C@@H](C)CO)C[C@H](C)[C@H](CN(C)Cc1ccc(Cl)c(Cl)c1)O2 | -4.0 | -6.2 | 0.0828 | 30.1
C=CCSc1nc2c(c(-c3ccc(C)o3)c1C#N)CCCC2 | -0.9 | -9.8 | -0.229 | -20.8
C[n+]1cc(C(=O)NCCC[N+]2(C)CCCC2)ccc1/C=N/O | 0.5 | -10.1 | -0.163 | -9.9
C[C@H]1CN([C@@H](C)CO)C(=O)c2cc(NS(=O)(=O)c3cccs3)ccc2O[C@H]1CN(C)Cc1ccccc1 | / | -0.5 | -0.0223 | /
COc1ccc(S(=O)(=O)N(C)C[C@@H]2Oc3c(NC(=O)c4cc(C)nn4C)cccc3C(=O)N([C@H](C)CO)C[C@H]2C)cc1 | 0.9 | -1.0 | -0.534 | -24.7
COc1cc2oc(-c3ccc(O)cc3)cc(=O)c2c(O)c1OC | -1.5 | -26.6 | -0.0556 | -49.4
C[C@H](CO)N1C[C@H](C)[C@@H](CN(C)S(=O)(=O)c2ccc(F)cc2)Oc2ccc(N(C)C)cc2C1=O | 1.7 | -1.5 | -0.368 | -26.3
C[C@H]1CN([C@@H](C)CO)C(=O)Cc2cc(N(C)C)ccc2O[C@@H]1CN(C)Cc1ccncc1 | 1.1 | -1.0 | 0.223 | 19.9
Cc1noc(C)c1NC(=O)Nc1ccc2c(c1)C(=O)N([C@H](C)CO)C[C@H](C)[C@H](CN(C)C(=O)Nc1cccc3ccccc13)OCCCC[C@@H](C)O2 | 1.8 | 3.9 | -0.11 | -8.9
O=C(c1cc2cc(Br)ccc2oc1=O)N1CCCc2ccccc21 | -0.3 | -0.5 | -0.502 | -22.5
Cc1cc(CNC(=O)Nc2cccc([N+](=O)[O-])c2)nn1C | 1.5 | -20.0 | / | /
Cc1ccccc1NC(=O)Cn1cnc2c1c(=O)n(C)c(=O)n2C | 2.0 | 18.2 | / | /
C[C@H](CO)N1C[C@H](C)[C@@H](CN(C)S(=O)(=O)c2cn(C)cn2)Oc2c(NS(=O)(=O)c3ccc(F)cc3)cccc2C1=O | 3.9 | -4.5 | 0.057 | -14.4
C[C@@H]1CN([C@@H](C)CO)C(=O)Cc2cc(NC(=O)Nc3cccc4ccccc34)ccc2O[C@@H]1CN(C)C(=O)Nc1ccc2c(c1)OCO2 | -3.7 | 0.4 | 0.317 | 7.1
CC(C)NC(=O)N(C)C[C@H]1Oc2c(NC(=O)c3ccncc3)cccc2C(=O)N([C@@H](C)CO)C[C@@H]1C | 2.2 | -14.4 | 0.0694 | -13.1
NNC(=O)C12CCCC(CCC1)C2 | 0.8 | 1.4 | -0.179 | 22.7
Cc1ccc(S(=O)(=O)N(C)C[C@H]2Oc3ccc(NC(=O)C4CCCCC4)cc3CC(=O)N([C@@H](C)CO)C[C@@H]2C)cc1 | 0.0 | 7.6 | 0.141 | 22.1
C[C@H](CO)N1C[C@H](C)[C@H](CN(C)Cc2ccc(C(F)(F)F)cc2)Oc2c(NC(=O)CCCCCC(=O)Nc3ccccc3N)cccc2C1=O | -0.1 | 8.0 | -0.531 | /
C[C@H](CO)N1C[C@H](C)[C@H](CN(C)C(=O)Nc2cccc3ccccc23)Oc2ccc(NC(=O)Nc3ccccc3)cc2CC1=O | -0.3 | -7.5 | 0.365 | -12.6
C[C@@H]1CN([C@H](C)CO)C(=O)c2cc(NC(=O)Nc3cccc4ccccc34)ccc2O[C@@H]1CN(C)C(=O)Nc1ccc2c(c1)OCO2 | 0.2 | 2.3 | -0.14 | -9.4
Cc1ccc(-c2nc(-c3ccc(Cl)cc3)cs2)cc1F | 4.1 | -42.8 | 0.0777 | -75.3
Cc1ccc(S(=O)(=O)Nc2cccc3c2O[C@@H](CN(C)C(=O)NC2CCCCC2)[C@H](C)CN([C@H](C)CO)C3=O)cc1 | 1.8 | -1.7 | 0.175 | -35.8
CCOc1cc(S(=O)(=O)NCCN2CCOCC2)c(C)cc1C | 0.1 | -5.4 | / | /
C[C@@H]1CN([C@H](C)CO)C(=O)c2cc(NC(=O)NC3CCCCC3)ccc2O[C@H]1CN(C)C | / | 3.0 | 0.0313 | /
C[C@@H]1CN([C@@H](C)CO)C(=O)c2cccc(NC(=O)Nc3ccc4c(c3)OCO4)c2O[C@H]1CN(C)C(=O)Nc1ccccc1 | / | 0.5 | 0.785 | 28.4
COc1ccc(S(=O)(=O)Nc2cccc3c2O[C@H](CN(C)C(=O)Nc2ccc(F)cc2)[C@H](C)CN([C@H](C)CO)C3=O)cc1 | -3.1 | -5.2 | -0.0584 | 10.3
C[C@H]1CN([C@@H](C)CO)C(=O)Cc2cc(NC(=O)C3CC3)ccc2O[C@@H]1CN(C)Cc1ccc(C(F)(F)F)cc1 | 0.2 | -25.3 | -0.58 | -39.8
C[C@@H]1CN([C@@H](C)CO)C(=O)c2cc(NS(=O)(=O)c3ccc(F)cc3)ccc2O[C@H]1CN(C)C(=O)NC1CCCCC1 | 1.0 | -5.6 | 0.068 | /
C[C@H]1CN([C@@H](C)CO)C(=O)c2cc(NC(=O)C3CCCCC3)ccc2O[C@H]1CN(C)Cc1ccc(C(F)(F)F)cc1 | -3.6 | 10.1 | 0.318 | -6.3
C[C@@H]1CCCCO[C@@H](CN(C)C(=O)CCC(F)(F)F)[C@@H](C)CN([C@H](C)CO)C(=O)c2cc(NC(=O)CCCCCC(=O)Nc3ccccc3N)ccc2O1 | 1.9 | -5.7 | -0.00177 | /
C[C@@H]1CN([C@H](C)CO)C(=O)Cc2cc(NC(=O)Nc3ccc(C(F)(F)F)cc3)ccc2O[C@@H]1CN(C)C(=O)Nc1ccc2c(c1)OCO2 | -2.2 | 6.1 | 0.317 | 35.9
C[C@@H]1CN([C@H](C)CO)C(=O)Cc2cc(NS(=O)(=O)c3ccccc3)ccc2O[C@@H]1CN(C)Cc1ccc(-c2ccccc2)cc1 | -3.5 | 0.7 | -0.403 | 42.9
COc1ccc(NC(=O)N(C)C[C@@H]2Oc3ccc(NS(=O)(=O)c4cccs4)cc3CC(=O)N([C@H](C)CO)C[C@@H]2C)cc1 | / | 2.2 | 0.188 | 26.6
CC1=C(C(=O)c2ccccc2)C(NC(=O)c2ccncc2)(C(F)(F)F)C(=O)N1Cc1ccccc1 (stereo not drawn) | -0.2 | 23.9 | / | /
C[C@H]1CN([C@@H](C)CO)C(=O)c2cc(NC(=O)Nc3ccc(F)cc3)ccc2O[C@@H]1CN(C)Cc1ccc(Oc2ccccc2)cc1 | 2.1 | -3.2 | -0.0553 | /
C[C@H]1CN([C@@H](C)CO)C(=O)c2cccc(NC(=O)Nc3ccc(F)cc3)c2O[C@H]1CN(C)Cc1ccc(C(=O)Nc2ccccc2N)cc1 | -4.6 | -14.3 | -0.343 | /
Cc1ccc(N(C(C)C(=O)O)S(C)(=O)=O)cc1 (stereo not drawn) | 0.5 | -45.2 | / | /
O=C(Nc1ccc(OCc2ccccc2)cc1)OCC1CN(Cc2ccccc2)CCO1 (stereo not drawn) | 0.1 | 7.4 | -0.0753 | /
CC(C)NC(=O)N(C)C[C@@H]1Oc2ccc(NC(=O)NC3CCCCC3)cc2CC(=O)N([C@H](C)CO)C[C@@H]1C | / | 0.0 | 0.0882 | -36.1
CCC(=O)Nc1cccc(NC(=O)COc2ccc(Br)cc2)c1 | 2.5 | -5.2 | / | /
CCn1c(SCC(=O)c2ccc(OC)cc2)nnc1-c1ccccc1F | 1.0 | -11.2 | / | /
COc1ccc([N+](=O)[O-])cc1NC(=O)C(C)Oc1ccccc1C (stereo not drawn) | -0.8 | 10.0 | / | /
CC(C)CC(NC(=O)c1ccco1)C(=O)Nc1ccc2c(c1)OCCO2 (stereo not drawn) | 0.4 | -64.5 | / | /
COc1ccc(OC)c(N(CC(=O)Nc2c(F)cccc2F)S(C)(=O)=O)c1 | 2.3 | -1.8 | / | /
COc1ccc(NC(=O)Nc2ccc3c(c2)CC(=O)N([C@H](C)CO)C[C@H](C)[C@H](CN(C)Cc2ccc(Oc4ccccc4)cc2)O3)cc1 | -1.2 | 10.8 | 0.000414 | -6.3
C[C@H]1CN([C@@H](C)CO)C(=O)Cc2cc(NS(=O)(=O)c3cn(C)cn3)ccc2O[C@H]1CN(C)Cc1ccc(-c2ccccc2)cc1 | 0.6 | 4.8 | 0.0115 | 5.1
CCN(CC(=O)Nc1ccc2c(c1)OCCO2)S(=O)(=O)c1ccc(Cl)cc1 | 1.0 | 0.2 | / | /
Cc1c(C)c(C)c(C(=O)/C=N/N)c(C)c1C | 2.1 | 11.0 | 0.129 | -8.1
Cc1c(C(=O)Nc2ccccc2)sc2ncn(CC(=O)Nc3ccccc3C(F)(F)F)c(=O)c12 | -0.8 | 11.9 | / | /

Ordered by formula weight (ascending): some entries from above.
SMILES | PD-1 reverse act | MITF inh | YB-1 expr inh | Shh pathway inh
Cc1c(C)c(C)c(C(=O)/C=N/N)c(C)c1C | 2.1 | 11.0 | 0.129 | -8.1
COc1ccc([N+](=O)[O-])cc1NC(=O)C(C)Oc1ccccc1C (stereo not drawn) | -0.8 | 10.0 | / | /
CCn1c(SCC(=O)c2ccc(OC)cc2)nnc1-c1ccccc1F | 1.0 | -11.2 | / | /
CC(C)NC(=O)N(C)C[C@@H]1Oc2ccc(NC(=O)NC3CCCCC3)cc2CC(=O)N([C@H](C)CO)C[C@@H]1C | / | 0.0 | 0.0882 | -36.1

(list continues)
SMILES | PD-1 reverse act | MITF inh | YB-1 expr inh | Shh pathway inh
C[C@H](CO)N1C[C@H](C)[C@@H](CN(C)Cc2ccc(C(=O)O)cc2)Oc2ccc(NC(=O)Nc3ccc4c(c3)OCO4)cc2C1=O | 1.0 | 11.3 | 0.512 | 8.2
COc1cc(CC(CO)C(CO)Cc2cc(OC)c(O)c(-c3cc(CC(CO)C(CO)Cc4ccc(O)c(OC)c4)cc(OC)c3O)c2)ccc1O (stereo not drawn) | / | / | -0.604 | 8.9
COc1ccccc1Nc1nc(N)nc(CSCCO)n1 | 0.6 | -13.9 | / | /
Cc1ccc(S(=O)(=O)N(C)C[C@H]2Oc3ccc(NS(=O)(=O)c4c(C)noc4C)cc3CC(=O)N([C@@H](C)CO)C[C@H]2C)cc1 | -2.8 | 4.4 | 0.491 | 30.6
Cc1ccc(S(=O)(=O)N(C)C[C@H]2Oc3ccc(NC(=O)Cc4ccccc4)cc3C(=O)N([C@@H](C)CO)C[C@@H]2C)cc1 | -2.6 | 16.7 | -0.0317 | /
C[C@H](CO)N1C[C@H](C)[C@H](CN(C)Cc2ccc(Cl)c(Cl)c2)Oc2ccc(NS(=O)(=O)c3ccc(Cl)cc3)cc2C1=O | -0.7 | 24.1 | 0.116 | 19.4
O=C(COc1ccc(Br)cc1CO)Nc1ccc(F)cc1 | -0.7 | -48.2 | / | /
COc1ccc(S(=O)(=O)Nc2ccc3c(c2)C(=O)N([C@H](C)CO)C[C@H](C)[C@H](CN(C)S(=O)(=O)c2cccs2)O3)cc1 | -2.3 | -6.3 | 0.589 | -3.0
O=C(CC1NC(=O)NC1=O)Nc1ccccc1 (stereo not drawn) | 1.6 | -8.4 | / | /

Bioassay records (PubChem)
